Sa growth inh = blocks Staphylococcus aureus growth. relative growth, % (concentration not given with the values). S. aureus RN4220 growth, OD600, 20 h, 42 °C; active compounds read low. hit rate 0.53% among 170,000. AID 720641;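 active = growth at 42 °C up to 50% and 20 or more points under that at 30 °C, or under 10% at both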;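 also: 300 nL library stock went into each well; scaled to the means of positive and negative controls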
GIV Gai3 FP = inhibitors of GIV GBA-motif binding to rat Galpha-i3. AID 1224905. hit rate 0.42% among 210,000. percent of control (FP), % (concentration not given with the values). Galpha-i3/FITC-GIV peptide fluorescence polarization, 90 min; active compounds read low; scaled: aluminum fluoride 0%, vehicle 100%. P08753;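 active = replicate mean at 85% of control or lower, very high polarization wells dropped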;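 also: wells of about 15 µL received 100 nL stock; the first replicate is given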
Target sequence (P08753 whole entry, looked up): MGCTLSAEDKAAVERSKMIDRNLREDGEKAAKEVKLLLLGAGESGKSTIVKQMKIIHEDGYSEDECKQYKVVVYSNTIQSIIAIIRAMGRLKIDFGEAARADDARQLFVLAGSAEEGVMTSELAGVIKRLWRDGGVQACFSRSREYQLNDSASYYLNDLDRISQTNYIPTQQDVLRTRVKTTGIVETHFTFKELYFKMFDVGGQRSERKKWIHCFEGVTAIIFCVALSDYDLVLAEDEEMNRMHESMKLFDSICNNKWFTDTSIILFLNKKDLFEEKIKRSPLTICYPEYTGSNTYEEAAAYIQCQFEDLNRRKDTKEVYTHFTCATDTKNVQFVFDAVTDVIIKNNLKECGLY
HCMV UL50-53 inh = inhibitors of HCMV UL50-UL53 nuclear egress complex interaction. HTRF UL50-UL53 interaction, normalized percent inhibition. inhibition, % (no concentration beside the values). hit rate 0.15% among 190,000;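 active = both replicates at 50% or more, plus weaker picks with an unusually low signal ratio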;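 also: stock transfer was 100 nL into about 20 µL; 0% = negative control wells and 100% = wells with untagged competitor protein; inactives centre near -12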
Sa growth inh second temp = further read-out of Sa growth inh, marked with its call; relative growth, %; measured here: growth at 30 °C;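 optical density after 20 h as mean of two plates; 100% = untreated growth and lower means inhibition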
Numbers without * were called inactive; x = no result given; & = joins results of further samples.

Second line of a record: Sa growth inh second temp, Sa growth inh, GIV Gai3 FP, HCMV UL50-53 inh
- COc1ccc(C2CC(=O)N(c3ccccc3)C(=O)C2)cc1
 : x, x, 101, -26
- Cc1ccc(CSc2nnc3n(CC(C)C)c(=O)c4cc(C)ccc4n23)cc1
 : x, x, 99, -16
- O=c1c2ccccc2nc2sc(Nc3cccc(C(F)(F)F)c3)nn12
 : 87, 101, 103, x
- Cn1c(=O)n(C)c2cc(S(=O)(=O)N3CCCCC3)ccc21
 : 82, 122, 106, -15
- CC(C)(C)OC(=O)N1CCN(S(=O)(=O)c2ccc(-n3cnnn3)cc2)CC1
 : 81, 85, 99, x
- O=C(Cn1c(=O)oc2cc(S(=O)(=O)NCc3ccccc3)ccc21)NC1CCCC1
 : 95, 115, 105, 0
- NNC(=O)c1cccc(NN)n1
 : 59, 71, x, -40
- CCc1ccc(NS(=O)(=O)c2ccc3c(c2)OCCN3C(C)=O)cc1
 : 81, 92, 102, x
- CN(CCC#N)S(=O)(=O)c1cccc2nsnc12
 : x, x, 102, -73
- O=C(Cc1noc2ccccc12)Nc1nc2ccccc2s1
 : x, x, 106, -12
- O=C(CNc1n[nH]c(=O)[nH]c1=O)N/N=C/c1ccccc1
 : 96, 97, 104, -27
- CCCNc1nc(C)nc2oc(C)c(C(=O)OCC)c12
 : x, x, 98, -5
- COc1ccc2cc(Br)ccc2c1CC(=O)NN1CCN(C)CC1
 : 101, 104, 107, -57
- COC(=O)c1cc(OC)c(OC)c(OC)c1NC(=O)c1cc(=O)n(C)c(=O)n1C
 : 91, 89, 102, 0
- Cc1nn(-c2nc3ccccc3[nH]2)c(N)c1-c1ccc(Cl)cc1
 : 21, 29, x, 11
- COc1ccc(/C=N/C2=NNC(c3ccccc3)=CS2)cc1
 : 80, 99, x, -1
- CN(C)CCCNC1=CC(=O)OC12CCCCC2
 : 96, 103, 103, -13
- COc1ccc(C2CC(=O)N(Cc3ccccc3C)c3c2c(C)nn3-c2nc(C)cc(C)n2)c(OC)c1 (stereo unspecified)
 : 84, 102, 95, -18
- Cn1c(C(=O)NCCN2CCOCC2)cc2c(=O)oc3ccccc3c21
 : x, x, 104, -6
- CC(C)c1ccccc1NC(=O)c1cc2ccccc2o1
 : 85, 94, x, -9

Second line of a record: Sa growth inh second temp, Sa growth inh, GIV Gai3 FP, HCMV UL50-53 inh
- CC(=O)Nc1ccc(S(=O)(=O)N2CCCC2)cc1Cl
 : 95, 90, 110, x
- O=C(CSCc1ccc(F)cc1)N1CCc2c([nH]c3ccccc23)C1c1ccc(Cl)cc1 (stereo unspecified)
 : 99, 102, 98, x
- O=C1CCCc2c1cc(C(=O)O)c(=O)n2-c1ccccc1
 : 92, 99, 102, -21
- CC(SC(=S)N1CCCC1)C(=O)O (stereo unspecified)
 : 80, 104, 102, x
- COc1ccc(-n2nnc(-c3nc(-c4cccs4)no3)c2N)cc1
 : 87, 110, 99, x
- CCOc1ccccc1NC(=O)c1oc2ccccc2c1NC(=O)C1CCCO1 (stereo unspecified)
 : 95, 105, 101, -7
- O=C1C2C3C=CC(C2C(=O)N1c1cccc(O)c1)C1C2C(=O)N(c4cccc(O)c4)C(=O)C2C31 (stereo unspecified)
 : x, x, 101, -32
- COc1ccc(NC(C)C(=O)Nc2nccs2)cc1 (stereo unspecified)
 : 90, 81, 100, x
- CC(OC(=O)/C=C/c1ccco1)C(=O)Nc1cccc(Cl)c1 (stereo unspecified)
 : 91, 79, x, -8
- O=C(NC1CCCCC1)C1CCCN(c2ncnc3c2nc2n3CCCCC2)C1 (stereo unspecified)
 : x, x, 106, -17
- Cc1cc(OCC(=O)O)cc2c1C(=O)CC(C)(C)O2
 : 87, 109, 105, -1
- CCn1c2ccccc2c2nc3cc4ccccc4cc3nc21
 : x, x, 44*, -8
- CCC(C)(C)NC(=O)/C=C/c1cnc2ccccc2n1
 : 81, 105, x, -86
- CCN(CC)C(=O)CSc1cn(CC(=O)N2CCCC2)c2ccccc12
 : 76, 92, 101, -27
- O=c1c(Cl)c(NCCO)ncn1-c1ccccc1
 : 82, 106, 100, -13
- CCOC(=O)c1c(Nc2ccccc2)nnc(-c2ccccc2)c1-c1ccccc1
 : 94, 103, 108, 10
- COc1ccc(NC(=O)Cn2c(=O)n(CCC(=O)NCCc3ccc(OC)c(OC)c3)c(=O)c3ccccc32)cc1Cl
 : 89, 103, 102, -14
- CCN(C(=O)C1CCN(S(=O)(=O)c2ccc3c(c2)CCCN3C(C)=O)CC1)c1cccc(C)c1
 : 81, 114, 103, x
- COCCNC(=O)CN1CCN(c2cc(C(=O)O)c3cc(NC(=O)C4CC4)ccc3n2)CC1
 : x, x, 105, -36
- Cc1csc(=S)n1-c1ccccc1
 : 90, 84, 102, 5

Second line of a record: Sa growth inh second temp, Sa growth inh, GIV Gai3 FP, HCMV UL50-53 inh
- COc1ccc2cc(C#N)c(Nc3cccc(F)c3)nc2c1
 : 89, 99, 102, 6
- O=C(NCC1CCCCC1)c1nc[nH]c1C(=O)NCc1ccccc1
 : x, x, 101, -15
- O=C(CCNC(=O)c1ccccc1Cl)Nc1ccc2c(c1)OCCO2
 : 100, 93, x, -15
- COC(=O)c1cc2oc(C)cc2n1Cc1cc(C)ccc1C
 : 92, 120, 100, -41
- COc1ccc2c(c1)c1c(c(=O)n(CCc3ccccc3)c(=O)n1Cc1ccc(Cl)cc1)n2C
 : 92, 128, 109, x
- CCC(C)[C@H]1O[C@]2(CC[C@@H]1C)C[C@@H]1C[C@@H](C/C=C(\C)[C@@H](OC3C[C@H](OC)C(O[C@H]4C[C@H](OC)[C@@H](O)[C@H](C)O4)[C@H](C)O3)[C@@H](C)/C=C/C=C3\CO[C@@H]4[C@H](O)C(C)=C[C@@H](C(=O)O1)[C@]34O)O2 (stereo partly specified)
 : 87, 88, x, -12
- CCc1ccc(NC(=O)Cn2c3ncccc3c(=O)n2-c2ccc(C)c(C)c2)cc1
 : 93, 104, 112, x
- O=C(NCCO)c1ccc(/C=N/O)nc1
 : 88, 88, 100, -23
- O=C(CSc1nc(=O)n(CCN2CCOCC2)c2c1CCC2)NCc1ccccc1
 : 84, 90, 102, -34
- COc1ccc2c(c1)c(CN1CCC(C(=O)NCC3CCCO3)CC1)cn2C (stereo unspecified)
 : x, x, 104, -16
- O=C(O)C1C(c2ccccc2)C(C(=O)O)C1c1ccccc1 (stereo unspecified)
 : 96, 79, 94, x
- CCn1c(N)c(C(=O)COC(=O)c2ccc(S(=O)(=O)C(F)F)cc2)c(=O)[nH]c1=O
 : 98, 93, x, -8
- COC(=O)c1ccc(NC(=O)CN2C(=O)c3cccc4cccc2c34)cc1
 : 90, 128, 105, -31
- O=C1CC(c2cccc(Br)c2)NC(=O)N1 (stereo unspecified)
 : 90, 81, x, -10
- CCn1c(-c2nnc(SCC(=O)NC(C)c3nc4ccccc4[nH]3)o2)cc2ccccc21 (stereo unspecified)
 : x, x, 101, -12
- C=CCn1c(SCc2cccc(OC)c2)nc2c(-c3ccccc3)cn(C)c2c1=O
 : x, x, 101, -30
- CCc1ccccc1Nc1nn2c(=O)c3ccc(C(=O)NCc4ccc(C)cc4)cc3nc2s1
 : 82, 132, 102, x
- Cc1nc(N2CCC(C(N)=O)CC2)nc2c1C(=O)CC(C)C2 (stereo unspecified)
 : x, x, 101, -24
- CCOC(=O)c1ccc(NC(=O)c2cc(-c3ccccc3)nc3ccccc23)cc1
 : x, x, 106, -11
- CN1C2=C(C(=O)CCC2)C(c2ccccc2)C2=C1CCCC2=O
 : 84, 99, x, -2

Second line of a record: Sa growth inh second temp, Sa growth inh, GIV Gai3 FP, HCMV UL50-53 inh
- Cc1oc2c(c(C)cc3oc(=O)c(CC(=O)NCCc4ccc(Cl)cc4)c(C)c32)c1C
 : 89, 107, 106, -32
- Cc1ccc(N2CC(NC(=O)CCCc3ccccc3)CC2=O)cc1 (stereo unspecified)
 : 82, 93, 95, x
- c1ccc(C2CCCCS2)cc1 (stereo unspecified)
 : 86, 110, 106, -1
- COc1cccc(NC(=O)CCc2c(C)nc3nc(CNC(=O)c4cccc(F)c4)nn3c2C)c1
 : 92, 106, 97, -4
- N#Cc1cn(C2CC2)c(=O)n(Cc2ccccc2)c1=O
 : 88, 88, 99, -14
- Nc1nc(-c2sc3nc4c(cc3c2N)CCC4)nc(N2CCOCC2)n1
 : 82, 88, 112, -10
- COc1cccc(C2c3c(oc4cc(C)cc(C)c4c3=O)C(=O)N2CCc2ccc(OC)c(OC)c2)c1 (stereo unspecified)
 : 92, 97, 100, -4
- COc1cccc(COC(=O)c2nn(-c3ccccc3)nc2N)c1
 : 92, 99, 102, -17
- COc1cc(OC)c(NC(=O)CN(C)S(=O)(=O)c2ccc3c(c2)CCCC(=O)N3)cc1Cl
 : 94, 94, 110, x
- O=C1Nc2ccccc2S/C1=C\c1cccc(Cl)c1
 : 91, 90, 104, x
- COC(=O)C1(C(=O)OC)C(c2ccc(Cl)cc2)C1(C#N)C#N (stereo unspecified)
 : 58, 78, 104, -7
- CC1CN(C(=O)CCC(=O)NCc2cccc(Cl)c2)c2ccccc2S1 (stereo unspecified)
 : 88, 92, 105&103, 0&-16
- CC1=NN(c2ccccc2)C(=O)/C1=N\OCC(=O)N1CCCc2ccccc21
 : 83, 86, x, -21
- O=C(c1[nH]nc2c1CCc1ccccc1-2)N1CCC(CCN2CCOCC2)CC1
 : x, x, 102, -11
- O=C(Oc1ccc(NC2=NS(=O)(=O)c3ccccc32)cc1)c1ccc(Br)cc1
 : x, x, 107, -8
- Cc1sc2c(c1C)c(=O)n(-c1ccccc1)c(=O)n2CC(=O)c1ccc(Cl)cc1
 : 83, 98, 101, -4
- Cc1ccc2c(c1)cc(C(=O)N1CCOCC1)n2C
 : x, x, 106, 10
- CC(Cc1ccccc1)N=C1NS(=O)(=O)c2ccccc21 (stereo unspecified)
 : 86, 90, 105, -36
- CCCn1c(=O)c2ccc(Cl)cc2n2c(=O)n(CC(=O)c3c(C)[nH]c4ccccc34)nc12
 : x, x, 96, -8
- Cc1ccc(NC(=O)CN(C)C(=O)Nc2ccc(C)cc2)cc1
 : 82, 95, x, -27

Second line of a record: Sa growth inh second temp, Sa growth inh, GIV Gai3 FP, HCMV UL50-53 inh
- NC(=O)c1nn(-c2ccc(Cl)cc2)c(=O)c2ccccc12
 : 89, 95, 104, -19
- CC(=O)OC(COCc1ccccc1)Cn1cnc2ccccc21 (stereo unspecified)
 : 78, 103, 103, -10
- Cc1ccc(C2=NN3C(C2)c2ccccc2OC3c2ccc(OC(=O)c3ccccc3)cc2)cc1 (stereo unspecified)
 : x, x, 99, -18
- O=C(COc1ccccc1)Nc1cccc(-c2nn[nH]n2)c1
 : 75, 101, 106, -17
- COC(=O)c1cc2cc(Br)ccc2c(Br)c1OC
 : 89, 106, 106, -13
- COC(CNC(=O)c1ccc(CNC(=O)c2cccc(Br)c2)cc1)OC
 : 85, 90, 107, x
- Cc1ccc(-c2nc(N)n(C(=O)c3ccc(C(C)(C)C)cc3)n2)cc1C
 : x, x, 103, -10
- CCOC(=O)c1c(C)oc2nc(C)nc(Nc3ccc(CC)cc3)c12
 : 96, 94, 113, x
- O=C(NCc1ccc(Br)cc1)C1CCN(c2ccnc(-c3ccccc3)n2)CC1
 : x, x, 103, -17
- Cc1ccc(OC(C)n2ccc3c2CCCC3)cc1 (stereo unspecified)
 : 107, 81, x, 0
- CC(=O)Nc1nonc1NC(=O)CSc1ncccn1
 : 90, 102, x, 2
- Cc1nc2ncnn2c(C)c1CCC(=O)NCc1ccc(F)cc1
 : 96, 111, 108, 1
- OC(CNC1Cc2ccccc2C1)COc1ccc(Cl)cc1 (stereo unspecified)
 : 93, 87, 106, -8
- Cc1nn(-c2ccc(N3CCCCC3)nn2)c(C)c1CCC(=O)N1CCN(c2ncccn2)CC1
 : x, x, 102, -39
- Cn1cnc2c(=O)oc3ccc(S(=O)(=O)N4CCN(c5ccccn5)CC4)cc3c21
 : x, x, 98, -15
- COc1cccc(N(C(C)=O)C2C=CS(=O)(=O)C2)c1 (stereo unspecified)
 : 87, 103, 104, 0
- O=C(NC1CC1)C1CCN(c2nnc(-n3cccc3)s2)CC1
 : 82, 101, 100, 1
- O=c1cc(-c2ccccc2)oc(=O)[nH]1
 : 103, 100, 104, 9
- CSc1nc(=O)c2c(n1C)NC(=O)CC2c1cc(F)cc(F)c1 (stereo unspecified)
 : 90, 99, 101, -11
- COc1cccc(NC(=O)c2cn(C3CCCCC3)c(=O)c3c2c2ccccc2n3C)c1
 : 90, 101, 105, -24

Second line of a record: Sa growth inh second temp, Sa growth inh, GIV Gai3 FP, HCMV UL50-53 inh
- CCCCN1C(=O)/C(=C2/Sc3ccc(OC)cc3N2C)SC1=S
 : 95, 107, 111, x
- CCc1c(CN(C)Cc2ccccc2)csc1C
 : 81, 84, 103, -31
- CC(C)(C)c1cc(N=O)cc(C(C)(C)C)c1O
 : 73, 101, 95, 6
- NNc1nc2c(-c3ccc(Cl)cc3)nnn2c2ccccc12
 : 85, 99, 107, -15
- CC(C)COC(=O)Cn1cnc2ccc(Br)cc2c1=O
 : 91, 94, 98, x
- CSc1n[nH]c(-c2ccc(C(F)(F)F)cc2)n1
 : 64, 107, 94, -6
